Bioassay records as filed in PubChem BioAssay.
UUG fidelity – modulators of start codon recognition fidelity in yeast. S. cerevisiae UUG-firefly luciferase reporter, luminescence/redox ratio. activity score, % at 18.7 µM. 350,000 tested, 0.13% active. AID 602363;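 active means replicate mean at a twofold rise or more, about +100% in these data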;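 further: firefly luciferase made from a UUG start codon reports start codon fidelity; reporter light over untreated wells divided by growth signal over untreated wells; some hits fall short of that in this replicate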
HIV Env fusion – HIV envelope-mediated fusion inhibition; HeLa-JRFL Env/CEM21 cell fusion, luciferase; inhibition, % at 12.3 µM; 360,000 tested, 1.1% active;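 active means mean replicate inhibition score of at least 50 and every replicate individually at or above 50; inconclusive means only one of the two criteria met; inactive means mean below 50 and not all replicates reaching 50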;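 further: 0% = plate neutral controls and 100% = maraviroc near 300 nM; one replicate is shown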
Numbers without * were called inactive; ? = inconclusive; [ ] = dose if it differs, or a comment.

SMILES	UUG fidelity	HIV Env fusion
COCCNC(=O)C[C@@H]1C[C@@H]2c3cc(NC(=O)CC4CC4)ccc3O[C@@H]2[C@H](CO)O1	-13.5	-4.7[16.7 µM]
NCC[C@H]1CC[C@H](NC(=O)Nc2ccc(F)cc2)[C@H](CO)O1	15.6	-0.4[16.7 µM]
COc1ccc(S(=O)(=O)N(C)C[C@H]2OCCCC[C@H](C)Oc3ccc(NS(=O)(=O)c4ccc(F)cc4)cc3C(=O)N([C@H](C)CO)C[C@H]2C)cc1	0.9	-0.7[16.7 µM]
COc1ccc(S(=O)(=O)N(C)C[C@H]2Oc3cc(C#CC4CCCCC4)ccc3S(=O)(=O)N([C@H](C)CO)C[C@@H]2C)cc1	-13.3	29.1[16.7 µM]
C[C@@H]1CN([C@@H](C)CO)C(=O)c2cccc(NC(=O)NC3CCCCC3)c2O[C@@H]1CN(C)C(=O)Nc1ccc2c(c1)OCO2	7.6	-24.5[16.7 µM]
O=C(C[C@H]1CC[C@@H](NS(=O)(=O)c2ccc(F)cc2)[C@H](CO)O1)N1CCC(Cc2ccccc2)CC1	9.6	14.4[16.7 µM]
C[C@H]1CN([C@@H](C)CO)C(=O)c2cc(-c3cccnc3)cnc2O[C@@H]1CN(C)C(=O)C1CCCCC1	-13.8	-7.5[16.7 µM]
COCc1cn(CC[C@@H]2CC[C@@H](NC(=O)Nc3ccc4c(c3)OCO4)[C@H](CO)O2)nn1	-5.4	7.6[16.7 µM]
CCCC(O)C#Cc1cnc2c(c1)C(=O)N([C@H](C)CO)C[C@H](C)[C@H](CN(C)Cc1cccc(C(F)(F)F)c1)O2 (some centres not stated)	16.2	14.6[16.7 µM]
C[C@H]1CN([C@@H](C)CO)C(=O)Cc2cc(NC(=O)C3CCCCC3)ccc2O[C@@H]1CN(C)Cc1ccc(C(F)(F)F)cc1	2.3	6.4[16.7 µM]
CCC(=O)N(C)C[C@@H]1Oc2ncc(C#CC(C)(C)O)cc2C(=O)N([C@H](C)CO)C[C@H]1C	2.4	-10.6[16.7 µM]
C[C@H]1CN([C@@H](C)CO)C(=O)c2cc(/C=C/c3ccccc3)cnc2O[C@H]1CN(C)Cc1ccccc1	-3.9	9.5[16.7 µM]
C[C@H](CO)N1C[C@H](C)[C@H](CN(C)C(=O)Nc2ccc3c(c2)OCO3)Oc2c(NC(=O)C3CCOCC3)cccc2C1=O	-7.9	5.6[16.7 µM]
COCC(=O)Nc1ccc2c(c1)C(=O)N(C)C[C@@H](OC)[C@@H](C)CN(C(=O)CC1CC1)[C@@H](C)CO2	-10.8	12.0[16.7 µM]
Cc1noc(C)c1NC(=O)N[C@@H]1CC[C@H](CCNC(=O)C2CCCCC2)O[C@H]1CO	-8.5	-16.3[16.7 µM]
Cc1noc(C)c1NC(=O)N(C)C[C@@H]1Oc2c(NC(=O)C3CC3)cccc2C(=O)N([C@@H](C)CO)C[C@@H]1C	11.8	-0.5[16.7 µM]
O=C(C[C@@H]1C=C[C@H](NS(=O)(=O)c2cccc(F)c2)[C@H](CO)O1)N1CCCCC1	-11.8	6.0[16.7 µM]
COc1ccc(S(=O)(=O)Nc2cccc3c2O[C@@H](CN(C)S(=O)(=O)c2ccc(F)cc2)[C@H](C)CN([C@@H](C)CO)C3=O)cc1	3.3	4.3[16.7 µM]
C[C@@H]1CN([C@@H](C)CO)C(=O)c2cc(C#Cc3ccccc3)cnc2O[C@@H]1CN(C)C(=O)c1ccccc1F	45.7	0.2[16.7 µM]
CNC(=O)C[C@H]1CC[C@@H]2[C@H](COc3ccc(NC(=O)c4ccc(F)c(F)c4)cc3C(=O)N2C)O1	5.0	-13.7[16.7 µM]
COc1ccc(NC(=O)Nc2ccc3c(c2)C(=O)N([C@H](C)CO)C[C@@H](C)[C@@H](CN(C)Cc2ccccc2)OCCCC[C@@H](C)O3)cc1	23.4	-35.5[16.7 µM]
Cc1noc(C)c1S(=O)(=O)Nc1ccc2c(c1)CC(=O)N([C@H](C)CO)C[C@@H](C)[C@H](CN(C)CC1CCCCC1)O2	24.2	22.2[16.7 µM]
C[C@H]1CN([C@@H](C)CO)S(=O)(=O)c2ccc(-c3ccncc3)cc2O[C@H]1CN(C)C(=O)C1CCCCC1	-14.1	-8.3[16.7 µM]
C[C@H]1CN([C@@H](C)CO)C(=O)Cc2cc(NC(=O)Cc3ccccc3)ccc2O[C@@H]1CN(C)CC1CCCCC1	10.5	-0.8[16.7 µM]
CC(C)NC(=O)Nc1ccc2c(c1)CC(=O)N([C@H](C)CO)C[C@@H](C)[C@H](CN(C)C(=O)Nc1ccccc1)O2	13.4	7.3[16.7 µM]
COCC(=O)N(C)C[C@@H]1Oc2ncc(-c3ccc(F)cc3)cc2C(=O)N([C@@H](C)CO)C[C@@H]1C	-0.6	14.2[16.7 µM]
C[C@H]1CN([C@@H](C)CO)C(=O)c2cc(C3=CCCC3)cnc2O[C@H]1CN(C)Cc1ccccc1C(=O)O	7.9	-14.7[16.7 µM]
O=C(N[C@H]1CC[C@@H](CCNC(=O)c2ccccc2F)O[C@@H]1CO)c1cnccn1	39.0	17.3[16.7 µM]
C[C@@H]1CN([C@@H](C)CO)C(=O)Cc2cc(NC(=O)Cc3ccccc3)ccc2O[C@@H]1CN(C)S(=O)(=O)c1ccccc1	9.3	18.3[16.7 µM]
C[C@@H]1CN([C@H](C)CO)C(=O)c2cc(C#Cc3ccccc3F)cnc2O[C@H]1CN(C)C(=O)C1CCOCC1	-2.2	-2.1[16.7 µM]
COc1ccc(CN(C)C[C@@H]2Oc3ccc(NC(=O)CCC(F)(F)F)cc3CC(=O)N([C@H](C)CO)C[C@@H]2C)cc1	-1.0	6.3[16.7 µM]
Cc1noc(C)c1S(=O)(=O)N(C)C[C@H]1Oc2ccc(NC(=O)Nc3ccc(C(F)(F)F)cc3)cc2CC(=O)N([C@H](C)CO)C[C@H]1C	-8.0	-1.3[16.7 µM]
C[C@@H]1CN([C@@H](C)CO)C(=O)Cc2cc(NC(=O)CCN3CCOCC3)ccc2O[C@H]1CN(C)CC1CC1	4.8	2.9[16.7 µM]
COc1ccccc1CNC(=O)C[C@@H]1CC[C@H]2[C@H](COc3ccc(NC(C)=O)cc3C(=O)N2C)O1	8.3	4.1[16.7 µM]
O=C(NCC[C@H]1CC[C@H](NS(=O)(=O)Cc2ccccc2)[C@H](CO)O1)C1CCOCC1	-2.4	8.9[16.7 µM]
CC(=O)N(C)C[C@@H]1Oc2ncc(-c3ccccc3F)cc2C(=O)N([C@@H](C)CO)C[C@H]1C	-6.1	5.2[16.7 µM]
CC(C)c1cn(CC[C@@H]2CC[C@@H](NC(=O)c3cccc(F)c3)[C@H](CO)O2)nn1	-6.4	2.5[16.7 µM]
C[C@H](CO)N1C[C@H](C)[C@@H](CN(C)CC2CC2)Oc2ccc(NC(=O)CCN3CCOCC3)cc2CC1=O	3.8	2.2[16.7 µM]
COc1ccc(NC(=O)Nc2cccc3c2O[C@@H](CN(C)S(C)(=O)=O)[C@H](C)CN([C@H](C)CO)C3=O)cc1	-7.1	5.1[16.7 µM]
C[C@@H]1C=C(C(=O)N2CCN(Cc3ccc4c(c3)OCO4)CC2)O[C@H](OCc2ccc(CO)cc2)C1	-11.5	-1.6[16.7 µM]
C[C@H](CO)N1C[C@H](C)[C@H](CN(C)Cc2ccccc2)Oc2ccc(NC(=O)CCCCCC(=O)Nc3ccccc3N)cc2CC1=O	7.0	4.1[16.7 µM]
O=C(N[C@H]1CC[C@H](CCNS(=O)(=O)Cc2ccccc2)O[C@H]1CO)c1ccc2c(c1)OCO2	72.0	-8.1[16.7 µM]
C[C@@H]1CN([C@@H](C)CO)S(=O)(=O)c2ccc(C3=CCCC3)cc2O[C@H]1CN(C)Cc1ccccc1	-7.4	33.0[16.7 µM]
C[C@H]1CN([C@@H](C)CO)C(=O)c2cc(-c3cncnc3)cnc2O[C@H]1CN(C)Cc1ccccc1	10.7	6.0[16.7 µM]
COc1ccc(CN(C)C[C@H]2OCCCC[C@@H](C)Oc3ccc(NC(=O)Nc4c(C)noc4C)cc3C(=O)N([C@H](C)CO)C[C@@H]2C)cc1	-5.2	4.2[16.7 µM]
COc1cccc(-c2ccc3c(c2)O[C@H](CN(C)Cc2cncnc2)[C@@H](C)CN([C@H](C)CO)S3(=O)=O)c1	-13.7	?
N#C[C@H]1[C@@H](c2ccc(-c3cccc(F)c3)cc2)[C@H](CO)N1C(=O)c1cccnc1	-0.8	-2.4[16.7 µM]
C[C@@H]1CCCCO[C@@H](CN(C)C(=O)Nc2ccc3c(c2)OCO3)[C@H](C)CN([C@H](C)CO)C(=O)c2cc(NC(=O)c3ccncc3)ccc2O1	7.1	-25.9[16.7 µM]
C[C@@H]1CCCCO[C@@H](CN(C)C(=O)CCC(F)(F)F)[C@@H](C)CN([C@H](C)CO)C(=O)c2cc(NC(=O)CCC(F)(F)F)ccc2O1	8.0	-10.0[16.7 µM]
C[C@@H]1CN([C@@H](C)CO)C(=O)c2cccc(NC(=O)NC3CCCCC3)c2O[C@H]1CN(C)Cc1ccncc1	-4.1	-21.1[16.7 µM]
Additional records.
SMILES	UUG fidelity	HIV Env fusion
COc1ccc(S(=O)(=O)N[C@@H]2C=C[C@H](CC(=O)N3CCN(c4ccccc4)CC3)O[C@@H]2CO)cc1	5.4	0.9[16.7 µM]
O=C(NCC[C@@H]1CC[C@H](NC(=O)C2CCOCC2)[C@H](CO)O1)Nc1ccc(Cl)cc1	-25.9	18.4[16.7 µM]
CN(C)CCCNC(=O)C[C@H]1CC[C@H](NC(=O)c2ccccc2F)[C@@H](CO)O1	-24.5	-2.1[16.7 µM]
COc1ccc(NC(=O)Nc2ccc3c(c2)C(=O)N([C@@H](C)CO)C[C@@H](C)[C@@H](CN(C)S(=O)(=O)c2ccccc2)OCCCC[C@@H](C)O3)cc1	8.0	7.5[16.7 µM]
Cc1ccc(S(=O)(=O)N(C)C[C@@H]2Oc3c(NS(=O)(=O)c4cccs4)cccc3C(=O)N([C@H](C)CO)C[C@@H]2C)cc1	-4.9	-16.1[16.7 µM]
Cc1ccc(S(=O)(=O)N(C)C[C@H]2Oc3c(NC(=O)C4CCOCC4)cccc3C(=O)N([C@@H](C)CO)C[C@@H]2C)cc1	1.2	-1.8[16.7 µM]
C[C@@H]1CN([C@H](C)CO)C(=O)c2cc(NC(=O)Cc3ccccc3)ccc2O[C@@H](C)CCCCO[C@H]1CN(C)Cc1ccc(C(F)(F)F)cc1	88.5	73.2*[16.7 µM]
C[C@@H]1CCCCO[C@@H](CN(C)C(=O)Nc2cccc3ccccc23)[C@@H](C)CN([C@H](C)CO)C(=O)c2cc(NC(=O)c3ccccc3)ccc2O1	-8.3	-15.7[16.7 µM]
Cc1cccc(S(=O)(=O)N[C@@H]2CC[C@@H](CCNS(=O)(=O)c3ccccc3F)O[C@H]2CO)c1	11.6	-0.4[16.7 µM]
C[C@H]1CN([C@@H](C)CO)C(=O)Cc2cc(NC(=O)Nc3ccccc3)ccc2O[C@H]1CN(C)S(=O)(=O)c1ccccc1	-8.9	70.0*[16.7 µM]

Grouped by structure, those above containing two or more sulfur atoms
SMILES	UUG fidelity	HIV Env fusion
COc1ccc(S(=O)(=O)N(C)C[C@H]2OCCCC[C@H](C)Oc3ccc(NS(=O)(=O)c4ccc(F)cc4)cc3C(=O)N([C@H](C)CO)C[C@H]2C)cc1	0.9	-0.7[16.7 µM]
COc1ccc(S(=O)(=O)N(C)C[C@H]2Oc3cc(C#CC4CCCCC4)ccc3S(=O)(=O)N([C@H](C)CO)C[C@@H]2C)cc1	-13.3	29.1[16.7 µM]
COc1ccc(S(=O)(=O)Nc2cccc3c2O[C@@H](CN(C)S(=O)(=O)c2ccc(F)cc2)[C@H](C)CN([C@@H](C)CO)C3=O)cc1	3.3	4.3[16.7 µM]
Cc1ccc(S(=O)(=O)N(C)C[C@@H]2Oc3c(NS(=O)(=O)c4cccs4)cccc3C(=O)N([C@H](C)CO)C[C@@H]2C)cc1	-4.9	-16.1[16.7 µM]
Cc1cccc(S(=O)(=O)N[C@@H]2CC[C@@H](CCNS(=O)(=O)c3ccccc3F)O[C@H]2CO)c1	11.6	-0.4[16.7 µM]

The results go on:
SMILES	UUG fidelity	HIV Env fusion
Cc1ccc(-c2ccc3c(c2)O[C@H](CN(C)C(=O)Nc2ccccc2)[C@@H](C)CN([C@@H](C)CO)S3(=O)=O)cc1	3.0	-12.9[16.7 µM]
C[C@@H]1CCCCO[C@H](CN(C)S(=O)(=O)c2cccs2)[C@H](C)CN([C@H](C)CO)C(=O)c2cc(NS(C)(=O)=O)ccc2O1	16.5	7.4[16.7 µM]
O=C(Nc1ccc2c(c1)OCO2)N[C@H]1CC[C@@H](CC(=O)N2CCN(c3ccccc3)CC2)O[C@H]1CO	10.9	-1.0[16.7 µM]
Cc1ccccc1-c1cnc2c(c1)C(=O)N([C@@H](C)CO)C[C@H](C)[C@@H](CN(C)Cc1cccnc1)O2	14.8	-2.6[16.7 µM]
CO[C@H]1CN(C)C(=O)c2cc(NS(=O)(=O)c3ccc(F)cc3)ccc2OC[C@H](C)NC[C@@H]1C	-9.0	10.1[16.7 µM]
COc1ccc(NC(=O)Nc2ccc3c(c2)CC(=O)N([C@@H](C)CO)C[C@H](C)[C@H](CN(C)C(=O)Nc2ccc4c(c2)OCO4)O3)cc1	-3.1	12.0[16.7 µM]
C[C@H](CO)N1C[C@H](C)[C@@H](CN(C)C)OCCCC[C@H](C)Oc2ccc(N(C)C)cc2C1=O	0.5	1.6[16.7 µM]
COP(=O)(OC)C(=NNS(=O)(=O)c1ccc(C)cc1)c1ccccc1	-2.1	1.2
COc1ccc(NC(=O)N(C)C[C@H]2OCCCC[C@H](C)Oc3ccc(NC(=O)Nc4ccc5c(c4)OCO5)cc3C(=O)N([C@H](C)CO)C[C@@H]2C)cc1	11.9	-5.8[16.7 µM]
C[C@@H]1CN([C@H](C)CO)S(=O)(=O)c2ccc(-c3ccccc3)cc2O[C@H]1CN(C)Cc1ccccn1	-15.4	22.0[16.7 µM]
CN(C)CC(=O)N[C@@H]1CC[C@H](CCn2cc(C3CCCCC3)nn2)O[C@@H]1CO	-9.5	-4.1[16.7 µM]

Some of the compounds tested; count on the stated rates, not on these rows.
